# Screening results: PubChem, ICCB-Longwood Screening Facility, Harvard Medical School
# Sa growth 42C: S. aureus growth inhibition; S. aureus RN4220 growth, OD600, 20 h, 42 °C; active compounds read low; relative growth, % (test concentration not listed); actives 0.53% (n = 170,000); AID 720641;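 active means growth at 42 °C up to 50% and 20 or more points under that at 30 °C, or under 10% at both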;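 further: 300 nL library stock went into each well; scaled to the means of positive and negative controls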
# HCMV NEC inh: disrupts HCMV UL50-UL53 complex binding; actives 0.15% (n = 190,000); inhibition, % (test concentration not listed); HTRF UL50-UL53 interaction, normalized percent inhibition;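 active means both replicates at 50% or more, plus weaker picks with an unusually low signal ratio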;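 further: stock transfer was 100 nL into about 20 µL; 0% = negative control wells and 100% = wells with untagged competitor protein; inactives centre near -12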
# GIV-Gai inh: GIV-Galpha-i interaction inhibition; Galpha-i3/FITC-GIV peptide fluorescence polarization, 90 min; active compounds read low; scaled: aluminum fluoride 0%, vehicle 100%; percent of control (FP), % (test concentration not listed); actives 0.42% (n = 210,000);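 active means replicate mean at 85% of control or lower, very high polarization wells dropped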;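 further: lower values mean more displacement of the GIV peptide from Galpha-i3; wells of about 15 µL received 100 nL stock; the first replicate is given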
# Target sequence (P08753 whole entry, looked up): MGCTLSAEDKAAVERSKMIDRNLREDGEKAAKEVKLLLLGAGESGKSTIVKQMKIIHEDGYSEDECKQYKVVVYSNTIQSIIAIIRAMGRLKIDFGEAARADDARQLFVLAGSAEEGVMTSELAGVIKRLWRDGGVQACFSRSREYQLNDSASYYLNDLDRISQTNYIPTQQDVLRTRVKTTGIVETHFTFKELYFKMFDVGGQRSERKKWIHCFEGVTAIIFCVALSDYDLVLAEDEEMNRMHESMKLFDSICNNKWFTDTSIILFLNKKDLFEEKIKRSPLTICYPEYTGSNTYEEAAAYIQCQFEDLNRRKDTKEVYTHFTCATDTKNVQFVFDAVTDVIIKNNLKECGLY
# Sa growth 42C second temp: further read-out of Sa growth 42C, marked with its call; relative growth, %; measured here: growth at 30 °C;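 optical density after 20 h as mean of two plates; 100% = untreated growth and lower means inhibition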
# * marks the source's active call; other numbers are inactive results; / = not tested or not shown; & = joins results of further samples.
compound	Sa growth 42C	Sa growth 42C second temp	HCMV NEC inh	GIV-Gai inh
O=C(/C=C/c1cccs1)N(c1ccccc1)c1ccccn1	88	87	-53	/
Cc1ccc(CNC(=O)c2ccc(Cn3c(SCc4ccc(F)cc4)nc4cccnc43)cc2)o1	102	66	-38	100
COC(=O)c1cccnc1-n1c(=O)c2cccnc2n(Cc2ccccc2F)c1=O	104	94	/	102
O=C(OC1CCOC1=O)c1cccc(S(=O)(=O)N2CCc3ccccc32)c1 (stereo unspecified)	97	99	9	/
Cc1ccc(-c2n[nH]c3c2C(c2cccnc2)NC3=O)cc1 (stereo unspecified)	/	/	-13	100
Cc1ccc(C(=O)N2C(=Nc3cccc(C(F)(F)F)c3)SCC2(C)C)o1	99	94	0	/
C=CCN1C(=O)C(CCC(=O)O)NC1=S (stereo unspecified)	104	91	-3	100
CC(C)=N/N=C1/NC(=O)C(CC(=O)Nc2cccc3ccccc23)S1 (stereo unspecified)	104	100	-37	96
CC(C)OC(=O)c1oc2c(O)c(O)ccc2c(=O)c1-c1cnn(-c2ccccc2)c1	112	95	-79	102
COc1ccccc1NCc1cccn1-c1nnc(N2CCCCCC2)s1	100	95	/	103
O=C(NCc1ccco1)Oc1ccccc1	89	79	-17	100
Cc1ccc(C)c(NC(=O)CSc2nnc(C)c3ccccc23)c1	/	/	-11	103
CC1Sc2ccc(Cl)cc2C(=O)/C1=C/N(C)C (stereo unspecified)	134	95	-40	142
COc1ccc(S(=O)(=O)c2c(C)cc(C)n(CC(=O)Nc3ccc4c(c3)OCCO4)c2=O)cc1OC	/	/	-10	103
O=C1CCCc2cc(S(=O)(=O)N3CCCC(C(=O)NCCc4ccc(Cl)cc4)C3)ccc2N1 (stereo unspecified)	/	/	-5	106
CCOc1ccc(/C=C/c2nc(C#N)c(N3CCN(CC)CC3)o2)cc1	82	88	-37	99
N#Cc1ccc(COc2ncnc3sccc23)cc1	80	90	-7	/
CC(C)c1ccc(S(=O)(=O)c2ccc(NN)cc2)cc1	93	95	-19	/
Cc1cccc(NC(=NCc2ccncc2)NC(=O)c2ccc3c(c2)OCO3)c1	/	/	-14	101
O=S(=O)(c1cccc(C(F)(F)F)c1)N1CCNCC1	96	84	-9	103
COc1ccc(N2CCN(C(=O)CNC3CC3)CC2)cc1	95	107	4	101
CCN(CCCNC(=O)CCCn1c(=O)[nH]c2ccsc2c1=O)c1cccc(C)c1	/	/	-18	104
O=C(O)c1nn(C2CCOC2=O)c(=O)c2ccccc12 (stereo unspecified)	117	100	6	/
CCCNC(=O)C1CCCN(c2ccc(=O)n(-c3ccc(OC)cc3)n2)C1 (stereo unspecified)	/	/	-67	111
O=C(NCc1ccccc1)/C(=C\c1ccccc1)NC(=O)c1ccccc1	100	77	/	102
CN(C)CCCn1c2c(c(SCC(=O)Nc3ccccc3)nc1=O)CCC2	99	92	0	102
O/N=C/c1ccc(-c2cccs2)s1	108	63	-52	102
COc1ccc(CCNc2nc3cc(OC)c(OC)cc3c3nc(-c4cccnc4)nn23)cc1OC	90	97	3	98
O=c1c(Cc2ccccc2)c(N2CCCCC2)nc2n1CCCS2	95	63	-4	104
Cc1cccc(N2CCN(CC(=O)Nc3ccc4c(c3)OC(F)(F)O4)CC2)c1C	104	89	-20	/
CC(C)Cn1c(SCC(N)=O)nc2ccccc2c1=O	86	87	-12	101
CCNc1nc(N)nc(OCCNC(C)=O)n1	105	78	12	101
CCOC(=O)c1cc2c(=O)n3ccccc3nc2n(CCOC)c1=NC(=O)C(C)(C)Oc1ccc(Cl)cc1	92	95	-7	101
Cc1nc2cccc(C(=O)N3CCCCCC3)c2o1	103	79	-24	103
Cc1cc(C)cc(OCC(=O)Nc2nccs2)c1	107	90	2	102
CCOc1ccc2ccccc2c1C1Nc2ccccc2-c2nnc(SCC)nc2O1 (stereo unspecified)	/	/	-29	93
CC1CN(C(=O)CCC(=O)N2CCCCC2)c2ccccc2S1 (stereo unspecified)	/	/	-13	101
CC1Cc2ccccc2N1C(=O)COc1ccc2c(c1)OCO2 (stereo unspecified)	115	96	-10	/
CCOC(=O)c1cnc(SCC(=O)Nc2cc(Cl)ccc2OC)nc1N	/	/	-19	106
O=C(NCc1ccccc1)C1CCN(C(=O)c2sccc2-n2cccc2)CC1	119	87	1&-14	106&102
Cc1cc(N(C)C)nc(Nc2ccccc2)n1	70	71	3	99
CC1CCN(C(=O)c2cccc(C3CCCN(C(=O)NC(C)C)C3)c2)CC1 (stereo unspecified)	/	/	-20	104
O=C(OCC(=O)N(C1CCCCC1)C1CCCCC1)c1ccc2c(c1)OCCO2	88	92	-34	/
CN1C(=C(C#N)C(=O)COc2ncnc3sc4c(c23)CCCC4)N(C)c2ccccc21	85	86	-22	/
Cc1cc(C(=O)COC(=O)Cn2cncn2)c(C)n1-c1ccc(F)cc1	92	93	4	/
CCCCNCC1C(Oc2ccc(Cl)cc2)C(=O)N1c1ccccc1C (stereo unspecified)	/	/	-26	97
CCOc1ccc(NC(=O)c2cnn3c2NC(c2ccccc2)=CC3c2cccc(OC)c2)cc1 (stereo unspecified)	/	/	-8	104
Cc1nn(CCC(=O)O)c2nc(-c3cccs3)cc(C(F)(F)F)c12	77	73	-19	/
Cc1cc(C)nc(N2CCN(c3cc(C)nc4c(C)c(-c5ccc(Cl)cc5)nn34)CC2)n1	/	/	-11	114
Cc1ccc(Nc2nc(C(=O)N(C)Cc3ccccc3)cs2)cc1	131	64	1	/

# Further results.
compound	Sa growth 42C	Sa growth 42C second temp	HCMV NEC inh	GIV-Gai inh
CCCCC(=O)Nc1cc2[nH]c(=O)[nH]c2cc1C	101	93	-23&6	108&104
N#Cc1c(Nc2ccc(F)cc2)sc2c(O)cc(=O)[nH]c12	103	68	-31	184
CCc1nc2ccccc2c(C(=O)OCC(=O)Nc2ccc3c(c2)OCCCO3)c1C	96	88	-9	/
CCc1nnc(SCC(=O)O)n1N	96	92	/	97
Fc1ccc(-c2cc(-c3nc(-c4ccc(Cl)cc4)no3)[nH]n2)cc1	94	72	/	104
O=C1CCC(C2CCC(=O)N2)N1 (stereo unspecified)	116	93	11	94
Cn1c(=O)sn(-c2ccccc2)c1=O	45	22	-19	96
CC(C)(NS(=O)(=O)c1ccc(Oc2ccc(F)cc2)cc1)C(=O)NO	/	/	-16	103
O=C(COc1ccccc1F)Nc1nnc(SCc2cc(=O)n3ccccc3n2)s1	94	86	/	103
COc1ccccc1N1CCN(C(=O)c2ccco2)CC1	96	104	22	96
O=C(Nc1cccc(F)c1F)C1CCN(c2ncccn2)CC1	96	93	-15	93
FC(F)(F)c1ccc(NC2CCCCC2)nc1	100	104	3	106
NS(=O)(=O)c1ccc2c(c1)Cc1ccccc1-2	109	71	-32	103
CCc1nnsc1C(=O)O	93	90	16	100
CCN(C(=O)Nc1ccc(OC)cc1)c1nc(-c2ccc(Br)cc2)cs1	/	/	-35	104
COc1ccc(C2N(c3ccc4c(c3)OCCO4)C(=O)C2(F)F)cc1OC (stereo unspecified)	98	97	-10	/
N=C1/C(=C2\Nc3ccccc3S2)CC(=O)N1c1ccccc1	56	41	-2	/
CCSc1nc2ccccc2n1CC(N)=O	99	81	-8	/
Cc1occc1C(=O)NCc1ccccc1	110	77	-4	101
O=C(CCN1C(=O)/C(=C/c2ccc(Cl)cc2)SC1=S)Nc1ccccc1	112	82	/	106
O=C=Nc1ccc(Cl)cc1Cl	88	98	-12	/
CSC1=C(C#N)C2(CCCCC2)C(C#N)=C(NC(=O)CSc2nncn2-c2ccccc2)N1	54	81	-28	/
O=Cc1c2ccc[nH]c-2c2ccccc12	106	88	-141	110
O=C(CSc1nc2ccccc2o1)N1c2ccccc2OCC1c1ccccc1 (stereo unspecified)	122	106	-4	/
CCOC(=O)CCc1nnc(-c2ccncc2)o1	104	89	-16	/

# 3 successive records from above, quoted:
compound	Sa growth 42C	Sa growth 42C second temp	HCMV NEC inh	GIV-Gai inh
CCCCC(=O)Nc1cc2[nH]c(=O)[nH]c2cc1C	101	93	-23&6	108&104
N#Cc1c(Nc2ccc(F)cc2)sc2c(O)cc(=O)[nH]c12	103	68	-31	184
CCc1nc2ccccc2c(C(=O)OCC(=O)Nc2ccc3c(c2)OCCCO3)c1C	96	88	-9	/

# (listing goes on)
compound	Sa growth 42C	Sa growth 42C second temp	HCMV NEC inh	GIV-Gai inh
CC(C)(C)CC(=O)Nc1nnc(-c2ccccc2)s1	95	73	-7	103
COc1ccc(C2CC(=O)c3cnc(N)nc3C2)cc1OC (stereo unspecified)	72	79	/	98
CCOC(=O)c1nn(-c2ccccc2)c(=O)cc1OCC	98	98	-17	112
COc1ccc(N(C)CC(=O)O)c(C(=O)O)c1	101	90	-34	102
CSc1ccc(C=Nc2ccc(Nc3ccccc3)cc2)cc1	83	61	-18	/
O=C(O)CSCC(=O)N(c1ccccc1)c1ccccc1	100	85	-10	/
Nc1nc2c(c(=O)[nH]1)C(c1c(F)cccc1Cl)CC(=O)N2 (stereo unspecified)	/	/	1	103
Cc1ccc(N2C(=O)c3cc(C)nn3CC2(C)C(=O)NCc2ccccc2)cc1 (stereo unspecified)	/	/	6	98
Cc1ccc(NC(=O)C2CC3CSCN3C23C(=O)Nc2ccccc23)cc1Cl (stereo unspecified)	/	/	-38	129
COc1ccc(CCNC(=O)CCCCn2c(=O)c3ccccc3n(CC(=O)Nc3ccccc3C)c2=O)cc1OC	108	88	-38	102
CC1CCN(c2ccc(/C=C3\SC(N)=NC3=O)cc2[N+](=O)[O-])CC1	/	/	-26	106
CC(=O)c1c(C)n(-c2ccc(Cl)cc2)c2ccc(OC(=O)COc3ccccc3)cc12	97	96	-12	108
O=C1c2ccccc2NC2(C(=O)Nc3ccccc32)N1CCOc1ccccc1 (stereo unspecified)	98	97	-8	103
Cc1c(C(=O)NCc2cccc(Cl)c2)sc2ncnc(N(C)C3CCCCC3)c12	131	93	/	101
CC1(C)CC(N(Cc2ccccc2)C(=O)Cc2ccccc2)CCO1 (stereo unspecified)	93	94	-16	99
Cc1csc2nc(CSc3ccccc3NC(=O)C(C)Oc3ccccc3)cc(=O)n12 (stereo unspecified)	/	/	-18	104
Cc1cc(CN2CCN(Cc3ccc4c(c3)OCO4)CC2)cs1	/	/	-9	98
CN(Cc1ccccc1)S(=O)(=O)c1nnc(NC(=O)c2ccccc2)s1	123	78	-5	105
COc1ccc(CNC(=O)C2CCNCC2)cc1	111	101	7	102
c1ccc(-c2ccc(CNCCc3c[nH]c4ccccc34)o2)cc1	/	/	-16	103
O=S(=O)(NCc1ccc(Cl)cc1)c1cccc2nsnc12	124	89	-69	103
Cc1ccc(S(=O)(=O)N2CCc3nc(N4CCCCC4)ncc3C2)cc1C	/	/	-14	107
CCOC(=O)N1CCC(NC(=O)c2cnn(-c3cccc(C)c3)c2C2CCN(C(=O)OC(C)(C)C)CC2)CC1	101	95	/	105
CC(=O)Nc1nc2c(c3c1c(=O)oc1ccccc13)CCCCC2	83	82	2	102
CN(C)c1ccc(/C=[N+](\[O-])C2(C)CCCCC2=O)cc1 (stereo unspecified)	103	123	-15	104

# Looked up by structure from the entries so far:
compound	Sa growth 42C	Sa growth 42C second temp	HCMV NEC inh	GIV-Gai inh
CCOC(=O)N1CCC(NC(=O)c2cnn(-c3cccc(C)c3)c2C2CCN(C(=O)OC(C)(C)C)CC2)CC1	101	95	/	105
CC(=O)c1c(C)n(-c2ccc(Cl)cc2)c2ccc(OC(=O)COc3ccccc3)cc12	97	96	-12	108
O=C(O)CSCC(=O)N(c1ccccc1)c1ccccc1	100	85	-10	/

# More structures
compound	Sa growth 42C	Sa growth 42C second temp	HCMV NEC inh	GIV-Gai inh
Cc1ccc(Cl)cc1N1CCN(C(=O)C2CCN(S(=O)(=O)c3c(C)noc3C)CC2)CC1	90	88	-18	102
C/C(N)=C(/C#N)C(=O)CSc1n[nH]c(-c2cccs2)n1	94	78	-17	/
CCOc1ccc(S(=O)(=O)Nc2ccccc2C(F)(F)F)cc1	104	63	-7	103
Cc1ccc(Cn2ncc3c(N4CCCC4)ncnc32)cc1	94	86	-16	100
Cc1cc(-n2c(C)cc(CNCc3nc4ccccc4[nH]3)c2C)no1	66	88	-20	/
COc1ccc(NC(=O)CCn2cc(C)c3ccccc32)cc1	105	92	-3	109
Cn1c(CSCc2ccccc2)c(C#N)c2ccccc21	79	91	-2	/
COc1ccc(-n2cnc3c(C)nc(Nc4cccc(C)c4)nc32)cc1	/	/	-33	102
COC(=O)c1cc2sccc2n1CC(=O)Nc1cc(Cl)ccc1OC	97	100	-8	107
Cc1ccc(NC(=O)COc2ccccc2)cc1	97	89	-12	94
Cc1ccccc1-c1nn2c(=O)cc(N3CCN(C(=O)Nc4ccccc4Cl)CC3)nc2s1	/	/	-1	109
Cc1cccc(NC(=O)CNc2nnnn2-c2ccccc2)c1C	106	97	5	/
O=C(NCc1ccc(Cl)cc1)c1sc2ccccc2c1Cl	105	85	/	103
Cc1cc(C)nc(SCC(=O)NC2=NN=C(c3ccccc3)CS2)n1	69	59	-17	100

# Not a hit list (roughly 0.79% active in at least one column).
